nsP2pro inh – Primary qHTS for inhibitors of NSP2Pro chikungunya virus (CHIKV); Potency, µM (titrated, usually from 24.9 µM), for inactives: at the top dose activity change, negative = inhibition, most hits filed as inhibitors; FRET peptide cleavage, nsP2pro, fluorescence 1 h; 31,000 compounds, 1.1% hits; Polyprotein P1234 (Chikungunya virus (strain S27-African prototype)), Q8JUX6; active means well fitted inhibition curve with a large enough effect; inconclusive means small, poorly fitted or top-dose-only effect; inactive means no such curve, though single readings can be large or run the other way; note: nearly all actives have a fitted effect of over 60% in size; a reference inhibitor and vehicle were the controls
Numbers without * were called inactive; i = inactive; ? = inconclusive; & = joins results of further samples; [ ] = another dose, or the depositor's remark. % is set by controls: 0 for no effect and ±100 for the full control effect; potency is the fitted concentration of half-maximal effect. An excerpt. The share of hits here may be higher or lower than overall.

SMILES	nsP2pro inh
O=C(Nc1ccc(S(=O)(=O)Nc2nccs2)cc1)c1cc(-c2ccccc2)nc2ccccc12	198%[activator]
Cc1noc(C)c1CN1CCN(C(=O)C2CCCN2)CC1 (configuration not stated)	1%
COc1ccccc1NC(=O)CSc1nc(-c2ccccc2F)nc2cc(=O)[nH]n12	13%
CC1(C)CC2CC(C)(CN2S(=O)(=O)c2ccc(C(=O)Nc3cccc(S(=O)(=O)N4CCOCC4)c3)cc2)C1 (configuration not stated)	-8%
CCN1C(C(=O)c2ccccc2)=C(OC(=O)COc2ccccc2)c2ccccc2S1(=O)=O	-28%
CCC12CN3CC(CC)(CN(C1)C3c1c(C)[nH]c(=O)[nH]c1=O)C2=O (configuration not stated)	-30%
CC1CCN(S(=O)(=O)c2cc(C(=O)NCCc3ccccc3)n(C)c2)CC1	-7%
Cc1csc(S(=O)(=O)N2CC[C@@H]3[C@@H](CCC(=O)N3CCN)C2)c1	-1%
COc1ccccc1/C=C/C(=O)Nc1nc2n(n1)C(c1ccc(F)cc1)C=C(c1ccccc1)N2 (configuration not stated)	22%
COC(F)(F)C(Cl)Cl	-2%
Cc1ccc(C)c(CN2CCC(CNC(=O)Cn3ncc4c([nH]c5ccccc54)c3=O)CC2)c1	-17%
CC1(C)COC(=O)[C@@H]1O[C@@H]1O[C@H](CO)[C@@H](O)[C@H](O)[C@H]1O	6%
C[S+](CC[C@H](N)C(=O)[O-])C[C@H]1O[C@@H](n2cnc3c(N)ncnc32)[C@H](O)[C@@H]1O (some centres not stated)	-7%
COc1ccc(-c2cc(=O)c3c(OC)c(OC)c(OC)c(OC)c3o2)cc1OC	?
Cc1cccc(C(=O)Nc2cc3c(cc2N2CCCCC2)n(C)c(=O)c(=O)n3C)c1	11%

As entered above.
C[S+](CC[C@H](N)C(=O)[O-])C[C@H]1O[C@@H](n2cnc3c(N)ncnc32)[C@H](O)[C@@H]1O (some centres not stated) | nsP2pro inh = -7%
Cc1noc(C)c1CN1CCN(C(=O)C2CCCN2)CC1 (configuration not stated) | nsP2pro inh = 1%
CCC12CN3CC(CC)(CN(C1)C3c1c(C)[nH]c(=O)[nH]c1=O)C2=O (configuration not stated) | nsP2pro inh = -30%
CC1(C)COC(=O)[C@@H]1O[C@@H]1O[C@H](CO)[C@@H](O)[C@H](O)[C@H]1O | nsP2pro inh = 6%

Remaining list, next part.
SMILES	nsP2pro inh
COc1ccccc1C(c1c(O)cc(C)n(Cc2ccco2)c1=O)N1CCCCC1 (configuration not stated)	-21%
Cc1ccc(CN2CCC([C@@H]3CNC[C@H]3CO)CC2)s1	5%
O=C(c1nc(-c2ccc(Cl)cc2Cl)c2cnccn12)N1CCOCC1	3%
O=S(=O)(Nc1nccs1)c1ccc(NCc2cccc(Cl)c2O)cc1	i
COc1ccc(OC)c(CCNC(=O)c2sc3nc4n(c(=O)c3c2C)CCCC4)c1	-8%
N#Cc1nc(Nc2cc(F)cc(F)c2)c2ncn(CCCN3CCCC3)c2n1	i
CC1(C)CN(C(=O)c2ccc(Oc3ccccc3)o2)CC1(C)O (configuration not stated)	?
O=S1(=O)N=C(Oc2ccccc2F)c2ccccc21	-8%
CCCCn1c(=NC(=O)c2cc3ccccc3o2)c(C(=O)OCC)cc2c(=O)n3ccccc3nc21	2%
O=C(Nc1ccc(Cl)c([N+](=O)[O-])c1)Nc1cccc(-c2ccncc2)n1	0%
CC(=O)N1N=C(c2ccc(N)cc2)c2cc3c(cc2C[C@H]1C)OCO3	-14%
O=S(=O)(c1ccc2c(c1)OCCO2)N1CCN(S(=O)(=O)c2ccccc2OC(F)(F)F)CC1	-11%
Cc1cccc(C)c1OCCCCn1c(C2CC(=O)N(c3ccc(F)cc3)C2)nc2ccccc21 (configuration not stated)	?
COC(=O)c1c(NC(=O)C(C)N2C(=O)c3ccccc3C2=O)sc2c1C(C(=O)OC)CC2 (configuration not stated)	?
CC(Cc1ccccc1)C(=O)Nc1ccc(Cl)cc1C(=O)O (configuration not stated)	i
CCC(=O)N1CCc2cc(Br)cc(S(=O)(=O)CCC(=O)NCCc3cccc(C)c3)c21	-24%
CCOc1ccc(CCNC(=O)c2cc3ccccc3n2C)cc1OCC	i
CCS(=O)(=O)N1CCCc2cc(C(=O)Nc3cc([N+](=O)[O-])ccc3C)ccc21	-13%
CN(C)CCCNc1cc(O)c2ncccc2c1	i
COc1ccccc1-c1nocc1CCC(=O)O	i
O=C1Nc2ccccc2C12CN([S+](=O)([O-])c1ccccc1)C2	1%
O=C(Cn1c(=O)ccc2cc(S(=O)(=O)N3CCCC3)ccc21)NCc1ccc(F)cc1	-13%
COc1cc(NS(=O)(=O)c2cccc([N+](=O)[O-])c2)c2ncccc2c1	107%[activator]
Fc1cc(Nc2nc(-c3ccncc3)nc3ccccc23)ccc1-c1cccc(C(F)(F)F)c1	2%
O=S(=O)(Nc1ccc(S(=O)(=O)Nc2nccs2)cc1)c1ccc2ccccc2c1	i
CC1(C)CCC(C)(C)c2cc(C3(c4ccc(C(=O)O)cc4)OCCO3)ccc21	-14%
CN(C(=O)Cn1nnc(-c2ccc(S(C)(=O)=O)cc2)n1)c1ccccc1	-20%
Cc1cc(C)c(C)c(S(=O)(=O)N2CCN(S(=O)(=O)c3ccc4c(c3)OCCO4)CC2)c1C	-9%
CC(=O)Nc1sc2c(c1-c1nc(-c3ccccc3)cs1)CCN(C(C)C)C2	?
O=C(COc1ccc(F)cc1)NCCc1nc2ccccc2[nH]1	-2%
CCCCCCOc1ccccc1C(N)=O	-4%
CSc1cccc(NC(=O)N2CCN(c3cc(-c4noc(C)n4)ccc3C)CC2)c1	-15%
Cc1ncc(COC(=O)C(C)C)c2cc(C(=O)Nc3ccccc3C(F)(F)F)c(=O)oc12	-19%
Cn1c(CCC(=O)NC2CCOC2)nc2cc(S(=O)(=O)N3CCCC3)ccc21 (configuration not stated)	4%
CN(C)c1ccc(Nc2c3ccc(NC(=O)CCN4CCCC4)cc3nc3cc(NC(=O)CCN4CCCC4)ccc23)cc1	-23%
Fc1ccccc1OCc1nc(-c2ccc(-n3cccc3)cc2)no1	-11%
COc1cc(OC)c(NC(=O)CSc2cc(=O)n(C)c3ccc(Cl)cc23)cc1Cl	-7%
CCOC(=O)c1ccccc1NC(=O)N(Cc1ccc(C)cc1)Cc1cccn1-c1nnc(N2CCCC2=O)s1	-20%
O=C(c1cc2ccc3cccnc3c2[nH]1)N1CCCCC1	-11%
COc1ccc(-c2cc(C(=O)NCCc3ccccc3)c3cc(C(C)C)ccc3n2)cc1	-18%
CCN(Cc1ccccc1)C(=O)Cn1c(=O)cc(C)c2c(C)nn(-c3cccc(F)c3)c21	-16%
Cc1c(Cl)cccc1S(=O)(=O)Nc1nc(NCCc2ccccc2)nc2c1CN(Cc1ccccc1)CC2	?
Cc1noc(C)c1CN[C@@H]1CCC[C@@H](C(=O)N2CCN(C)CC2)CC(=O)N(C)C1	-1%[39.2 µM]
CCn1cc(CN(C)Cc2ccccc2)ccc1=O	-6%
CCOc1ccc(CCNC(=O)c2cc3sccc3n2Cc2ccncc2)cc1OCC	i

Some of these compounds in order of heavy-atom count, highest first:
SMILES	nsP2pro inh
CCOC(=O)c1ccccc1NC(=O)N(Cc1ccc(C)cc1)Cc1cccn1-c1nnc(N2CCCC2=O)s1	-20%
CCN(Cc1ccccc1)C(=O)Cn1c(=O)cc(C)c2c(C)nn(-c3cccc(F)c3)c21	-16%
Cn1c(CCC(=O)NC2CCOC2)nc2cc(S(=O)(=O)N3CCCC3)ccc21 (configuration not stated)	4%

2 entries picked at random from the list so far:
SMILES	nsP2pro inh
CCn1cc(CN(C)Cc2ccccc2)ccc1=O	-6%
CCOc1ccc(CCNC(=O)c2cc3sccc3n2Cc2ccncc2)cc1OCC	i

Next part:
SMILES	nsP2pro inh
Cc1nc(-c2cn(C3CCCN(C(=O)c4ccc(Cl)s4)C3)nn2)no1 (configuration not stated)	-3%
O=C(NCCc1nc2ccccc2n1Cc1ccc(Cl)cc1Cl)c1ccco1	-4%
CCN1/C(=C/C=C/C=C/c2sc3ccccc3[n+]2CC)Sc2ccccc21	57%[activator]
CCOC(=O)c1cccc(NC(=O)c2oc3c(c2C)-c2nn(CC)cc2CC3)c1	?
CC(C)OC(=O)[C@H](C)N[P@](=O)(CO[C@H](C)Cn1cnc2c(N)ncnc21)Oc1ccccc1	-10%&6%
COc1ccc(-c2cn3nc(SCC(=O)Nc4ccc(C)c(Cl)c4)ccc3n2)cc1	-8%
COC(=O)N(C)Cc1cccc(N2CCN(S(=O)(=O)c3cccc4ccccc34)CC2)c1F	i
CC1CCC23COC(=O)C2=CC(O)CC3C1(C)CCC1=CC(=O)OC1O (configuration not stated)	51%[activator]
O=S(=O)(NC1CCN(S(=O)(=O)c2c(F)cccc2F)CC1)c1ccc2c(c1)OCCO2	i
COCC(=O)N1CCC(C2CCN(C(=O)c3ccncc3)CC2)C1 (configuration not stated)	0%
O=C(O)c1cc(=O)c2c(OCC(O)COc3cccc4oc(C(=O)O)cc(=O)c34)cccc2o1	-3%
CC(=O)Nc1sc2c(c1-c1ccccc1F)CCNC2	-3%
Cc1ccc(CNc2ncc(N3CCCCC3)cn2)cc1	-15%
Cc1nc([C@](C)(O)CO)sc1-c1cnc(N)c(O[C@H](C)c2cc(F)ccc2-n2nccn2)c1	7.9µM*
COc1cc(Cl)c(C)cc1NC(=O)c1cc2c(Cl)nc3ccc(C)cc3c2s1	-17%
CCC1CCCCN1CCCNC(=O)c1cc2c(Cl)nc3ccc(C)cc3c2s1 (configuration not stated)	160%[activator]
O=C(NCCN1CCCC1)c1c(OCC2CC2)cc(=O)n2c1CCOCC2	i
CC(=O)OC1CC2(C)C(CCC(C)C23Cc2c(O)cc4c(c2O3)CNC4=O)C(C)(C)C1O (configuration not stated)	?
Cc1cc(OCCn2cc(C(=O)c3ccco3)c3ccccc32)ccc1Cl	0%
COc1ccc(-c2noc(CSc3nc4ccccc4[nH]3)n2)cc1	3%
COc1ccc(OC)c(S(=O)(=O)NCCc2sc(C)nc2C)c1	?
CN1C(CCl)Nc2cc(Cl)c(S(N)(=O)=O)cc2S1(=O)=O (configuration not stated)	-6%&0%
CC(C)(C)CC(=O)N1C[C@@H](CO)[C@@H]2Oc3ccc(Cl)cc3[C@@H]21	-11%
O=C1CC2(CCCC2)[C@H](O)C(=O)N1CCCCN1CCN(c2ncccn2)CC1	-15%
Cc1ccc(-c2cc(C(=O)Nc3ccc(S(N)(=O)=O)cc3)c3ccccc3n2)cc1C	-23%
COc1cc(NC(=O)CCC2CCCN(Cc3nc(C(C)C)cs3)C2)cc(OC)c1 (configuration not stated)	0%
Cc1ccc(-c2ccc(=O)n(CCNC(C)c3ccco3)n2)cc1 (configuration not stated)	-12%
Cc1cccc(-c2nc(C)c(CCNC(=O)c3cccs3)s2)c1	-25%
O=C(NCC1CN(CC2CC2)CC12CN(c1ccccc1)C2)Nc1ccccc1 (configuration not stated)	-6%[39.2 µM]
Cc1ccccc1Nc1c(-c2ccc(Br)cc2O)nc2sccn12	2%
Cc1noc(C)c1-c1cc2c(cc(C)n2C)c(-c2ccnn2C)n1	?
Cc1cc2c(s1)c1cnn(Cc3cccc(F)c3F)c(=O)c1n2C	0%
COc1cccc(-c2cc(-c3ccc(=O)[nH]c3)c3cncn3c2)c1	?
Cc1ccc(NS(=O)(=O)c2cc3c(cc2/C=C/c2ccccc2)NC(=O)CO3)cc1C	-1%
Cc1c(P(=S)(c2ccccc2)c2ccccc2)c2ccccc2n1CCCc1ccccc1	-6%
CCN(CC)S(=O)(=O)c1ccc(NC(=O)CCc2c(C)nc3cc(-c4ccc(Cl)cc4)nn3c2C)cc1	6%
O=c1ncn(Cc2ccccc2)c2ccc(-c3cccnc3)nc12	-3%[39.2 µM]
C[C@@H]1CN(Cc2ccc(F)cc2)[C@@H](C)CN1C(=O)c1cc2c(C(=O)C(=O)N(C)C)cn(C)c2cc1Cl	1%
CC(C)c1ccc(-c2cc(=O)c3ccccc3o2)cc1	22%
CC1=C(c2ccc(C(C)C)cc2)S(=O)(=O)NC1=NCc1ccccc1Br	?
OC1CC(c2cccc(F)c2)N(Cc2ccc(-c3ccn[nH]3)o2)C1 (configuration not stated)	?
COc1ccc(-c2cc(C(F)(F)F)nc(S(=O)(=O)CCCC(=O)Nc3cccc(O)c3)n2)cc1OC	74%[activator]
CC(C)C1=NOC2(CCN([S+](=O)([O-])c3cccc(C(F)(F)F)c3)C2)C1 (configuration not stated)	-7%
O=C(C1CCCC1)N1CCC(C(=O)N2CCCC2c2ccccn2)CC1 (configuration not stated)	3%
COC(=O)C1=COC(OC2OC(CO)C(O)C(O)C2O)C2C(COC(=O)/C=C/c3ccc(O)cc3)C(O)C(O)C12 (configuration not stated)	28%[10 µM]
O=C(C[C@H](CSc1ccccc1)C(=O)O)c1ccc(-c2ccc(Cl)cc2)cc1	-5%
CC1(C(=O)O)CCN(C(=O)c2cccc(Cl)c2)CC1	-21%[39.2 µM]
COc1cc(C)ccc1OCCSc1nnc(-c2cccs2)o1	-12%
O=C(NNC(=O)c1cc2ccccc2[nH]1)OCc1ccccc1	0%
O=C(NCC1CN(S(=O)(=O)c2cccnc2)CC12CCOCC2)N1CCCC1 (configuration not stated)	-1%
Cc1ccc(S(=O)(=O)n2nc(C)c(S(=O)(=O)N3CCC(C)CC3)c2C)cc1	-10%
O=C1COc2ccc(-c3ccoc3)nc2CN1Cc1ccccc1	?
CCCCC(OC(=O)CNC(=O)c1ccccc1)C(=O)Nc1cc(C(F)(F)F)ccc1Cl (configuration not stated)	-4%
O=C(Nc1ccccn1)c1sc2ccc([N+](=O)[O-])cc2c1Cl	-8%

Compounds listed so far with a nitro group on carbon, in the order listed:
SMILES	nsP2pro inh
O=C(Nc1ccc(Cl)c([N+](=O)[O-])c1)Nc1cccc(-c2ccncc2)n1	0%
CCS(=O)(=O)N1CCCc2cc(C(=O)Nc3cc([N+](=O)[O-])ccc3C)ccc21	-13%
COc1cc(NS(=O)(=O)c2cccc([N+](=O)[O-])c2)c2ncccc2c1	107%[activator]
O=C(Nc1ccccn1)c1sc2ccc([N+](=O)[O-])cc2c1Cl	-8%
